Six1-Eya2 inh: qHTS Assay for Inhibitors of the Six1/Eya2 Interaction; activity change, % (test concentration not listed); Homeobox protein SIX1 (Homo sapiens) + Protein phosphatase EYA2 (Homo sapiens), …; 0.56% of 360,000 active; AID 651725, 2012; AlphaScreen GST-Six1/His-Eya2 binding, biochemical; hits give low values; control for the full effect not named in the record; in the data active = activity change below about -65%; inconclusive = about -30% to -65%; inactive = above about -30%; further: on the % scale 0 is the no-effect control and ±100 the full control effect; compound concentration not given in the record
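AlphaScreen luminescence read after one hour at 37 °C in darkness. Pin-transferred compounds met GST-Six1 and His-Eya2 protein (5X stock 250 nM/500 nM) plus glutathione donor and Ni-chelate acceptor beads (5X, 50 ug/mL).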
TRPML1 blocker: qHTS for Inhibitors of the Human Mucolipin Transient Receptor Potential 1 (TRPML1); activity change, negative = inhibition, % (no concentration beside the values); TRPML1-inducible cells, Ca2+ dye fluorescence, FDSS; hits give low values; inhibition of EC80 agonist-evoked calcium signal; AID 624415, 2012; 0.02% of 390,000 active; in the data active means activity change below about -50%; inconclusive means about -30% to -50%; inactive means above about -30%;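 further: stimulus is agonist 54-4 at its EC80 concentration; on the % scale 0 is the no-effect control and ±100 the full control effect; compound concentration not given in the record; the text of the record puts the active cut at -80%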
Target sequence (Q9GZU1 whole entry, looked up): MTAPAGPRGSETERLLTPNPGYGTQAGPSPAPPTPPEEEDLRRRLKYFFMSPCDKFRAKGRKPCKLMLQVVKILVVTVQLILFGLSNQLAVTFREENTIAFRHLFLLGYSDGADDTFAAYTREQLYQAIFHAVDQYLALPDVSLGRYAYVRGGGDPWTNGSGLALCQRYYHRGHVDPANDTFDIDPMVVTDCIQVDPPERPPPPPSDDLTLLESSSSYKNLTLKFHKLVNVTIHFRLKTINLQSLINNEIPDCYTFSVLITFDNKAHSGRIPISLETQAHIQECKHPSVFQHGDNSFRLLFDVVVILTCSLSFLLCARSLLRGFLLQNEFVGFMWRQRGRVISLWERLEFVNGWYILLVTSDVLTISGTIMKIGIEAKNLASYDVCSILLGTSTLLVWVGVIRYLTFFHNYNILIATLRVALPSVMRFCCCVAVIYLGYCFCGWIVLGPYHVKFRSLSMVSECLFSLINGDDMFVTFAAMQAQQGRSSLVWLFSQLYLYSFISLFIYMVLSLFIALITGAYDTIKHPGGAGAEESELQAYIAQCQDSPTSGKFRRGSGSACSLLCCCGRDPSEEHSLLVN
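Calcium fluorescence in TRPML1-DL cells induced overnight with Tet: a 110 s read after compound pin addition, then a 110 s antagonist read after challenge with 54-4 at 4 uM final (EC80).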
TRPML1 ag: qHTS for Agonists of the Human Mucolipin Transient Receptor Potential 1 (TRPML1); activation, % (test concentration not listed); Mucolipin-1 (Homo sapiens), Q9GZU1; 0.12% of 410,000 active; TRPML1-expressing cells, Ca2+ dye fluorescence, FDSS; host cell line not named in the record; reference of the full effect not given here; in the data active = activation above about 50%; inconclusive = about 30% to 50%; inactive = below about 30%; further: 0% is about no effect; the text of the record puts the active cut at 80%
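Agonist activity was taken from a 110 s kinetic Ca2+ dye read on the FDSS after pinning compounds onto TRPML1-DL cells. The cells were seeded at 1,500/well with Tet inducer, incubated about 16 h, then dye-loaded at room temperature.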
D2 potentiator: Beta-Arrestin HTS for Positive Allosteric Modulators of the Human D2 Dopamine Receptor: Potentiators; AID 624464, 2012; DiscoveRx D2 beta-arrestin cells, luminescence, 90 min; 100% = 57 uM dopamine signal; potentiation, % (no concentration beside the values); 0.23% of 360,000 active; D(2) dopamine receptor (Homo sapiens), P14416; active = potentiation of 50% or more; inconclusive = 30% to 50%; inactive = 30% or less;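 further: compound concentration not given in the record; tested on top of an EC20 dose of dopamine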
Target sequence (P14416 whole entry, looked up): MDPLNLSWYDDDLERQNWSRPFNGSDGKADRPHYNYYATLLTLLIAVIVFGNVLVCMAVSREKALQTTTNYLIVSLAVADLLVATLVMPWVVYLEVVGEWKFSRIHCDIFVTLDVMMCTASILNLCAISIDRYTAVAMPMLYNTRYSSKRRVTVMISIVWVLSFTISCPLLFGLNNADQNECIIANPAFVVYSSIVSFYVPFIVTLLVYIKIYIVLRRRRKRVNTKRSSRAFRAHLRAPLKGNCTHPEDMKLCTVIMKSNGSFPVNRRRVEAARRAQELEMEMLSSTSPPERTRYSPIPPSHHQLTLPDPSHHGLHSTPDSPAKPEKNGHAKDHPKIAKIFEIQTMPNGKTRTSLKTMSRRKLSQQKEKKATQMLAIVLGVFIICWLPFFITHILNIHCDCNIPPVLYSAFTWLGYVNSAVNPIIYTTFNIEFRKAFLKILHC
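PathHunter beta-arrestin assay in DiscoveRx D2 cells. Compounds were added with an EC20 of dopamine (50 nM final) for 90 min at 37 deg C. Luminescence was read 1 h after detection reagent, with 57 uM dopamine as the EC100 control.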
D2 agonist: Beta-Arrestin HTS for Positive Allosteric Modulators of the Human D2 Dopamine Receptor: Agonists; D(2) dopamine receptor (Homo sapiens), P14416; DiscoveRx PathHunter D2 beta-arrestin, luminescence, 90 min; 100% = 57 uM dopamine signal; activation, % (concentration not given with the values); 0.084% of 360,000 active; AID 624465, 2012; in the data active = activation above about 40%; inconclusive = about 15% to 40%; inactive = below about 15%; further: compound concentration not given in the record; the text of the record calls up to 30% inactive
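Agonist mode: compounds alone added to overnight-plated D2 PathHunter cells for 90 min at 37 C, with 57 uM final dopamine (EC100) defining full response. Beta-arrestin recruitment detected by chemiluminescent reagent, read after 1 h at ambient temperature.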
PINK1 expr mod: A Quantitative High throughput Screen to Identify Chemical Modulators of PINK1 Expression; 0.2% of 410,000 active; AID 624263, 2012; Potency, µM (top dose mostly 76.6 µM), without a hit: at the highest dose activation (PINK1 increase), actives largely listed as activators; PINK1 immunofluorescence, high-content cytometry, 24 h; active = well fitted activation curve with a large enough effect; inconclusive = small, poorly fitted or top-dose-only effect; inactive = flat fitted curve, though single readings scatter; cell line not stated here;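 further: potency means the concentration at half of the fitted maximal effect; % of control where 0% means no effect; nearly all actives have a fitted effect of over 65% in size; a mitochondrial uncoupler was the plate control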
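A stable cell line was treated with compounds at 5 concentrations for 24 hours, with CCCP as control. PINK1 levels and mitochondrial localization were measured by immunofluorescence with mitochondrial, cell and nuclear markers after fixation, read by laser-scanning cytometry.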
An asterisk follows results filed as active; u = inconclusive; x = not tested or not shown; & = joins results of further samples; [ ] = remark or other dose. Rows are unselected (roughly 1% active in at least one column).

SMILES	Six1-Eya2 inh	TRPML1 blocker	TRPML1 ag	D2 potentiator	D2 agonist	PINK1 expr mod
CC1CCc2c(c3ccccc3n2C(=O)CCl)C1 (configuration not stated)	-17.5	-9.9	2.3	-6.3	13.2	4.8%
CCOc1ccc(C(=O)OCC(=O)N2CCCC2)cc1OCC	-2.2	5.7	-0.1	-7.8	0.5	-0.1%
COc1cccc(Cn2c3ccc(NC(=O)Cc4ccccc4C)cc3c(=O)n2C)c1	-5.1	x	-0.7	0.6	10.9	3.3%
CC(=O)c1cccc(NC(=O)N2CCCC2C(=O)NCCC(C)C)c1 (configuration not stated)	3.4	11.1	-0.1	-29.7	-1.4	0.6%
CCOC(=O)c1ccc(N2CN(CC)CNC2=S)cc1	13.6	-18.3	0.0	-9.8	-9.2	5.6%
COc1ccc(-c2nc(-c3ccc(Br)o3)no2)cc1OC	-5.9	20.6	-0.5	-2.2	-4.8	12.6%
Cc1ccc(NS(=O)(=O)c2c(C)nc3sccn3c2=O)cc1	3.3	4.0	0.7	-4.1	-1.4	1.0%
COCCCNC(=O)c1ccc(CS(=O)(=O)c2ccc(OC)cc2)o1	1.4	1.6	-0.2	-0.4	0.6	1.2%
Cc1cc(C)c2c(=O)cc(C(=O)Nc3c(C)n(C)n(-c4ccccc4)c3=O)oc2c1	x	-3.6	-1.3	x	x	3.2%
O=C(CCN1C(=O)c2ccccc2S1(=O)=O)Nc1ccccc1	6.5	5.5	-1.0	-7.6	-4.7	5.4%
O=[N+]([O-])c1ccc(N2CCOCC2)cn1	16.0	-21.7	1.3	-6.0	-1.9	9.0%
O=C(NC1CC1)C1CCN(c2ccc(S(=O)(=O)N3CCOCC3)cc2Cl)CC1	1.2	20.4	0.7	-5.4	-3.3	8.5%[38.3 µM]
CS(=O)(=O)Nc1ccc2c3c(cccc13)CC2	-0.3	-18.1	-0.6	-15.1	-2.6	0.5%
O=[N+]([O-])c1ccc(O)c(/C=N/Nc2ccccc2[N+](=O)[O-])c1	-1.5	52.7	0.1	-1.4	1.4	20µM*
COc1ccc(CNC(=O)C2CCCN(S(=O)(=O)N3CCC(C)CC3)C2)c(OC)c1 (configuration not stated)	16.3	-22.3	0.5	-5.6	-3.9	2.4%
CCNC(=S)Nc1cccc(S(=O)(=O)Nc2ccccc2OC)c1	0.1	-3.7	0.1	-6.7	-0.8	1.3%
COc1ccc(C2CC(c3cccs3)=NN2C(=O)COC(=O)C2CCCCC2)cc1OC (configuration not stated)	-17.3	15.9	1.0	-8.9	-2.3	1.9%
CCOc1ccc(CCNC(=O)CCCc2cc(-c3ccc(OCC)cc3)on2)cc1	x	-9.0	-0.4	x	x	-0.6%
CCOc1ccc(/C=N/n2cnnc2)cc1	3.0	-3.8	-0.5	-5.4	-5.2	-6.5%[38.3 µM]
Cc1ccccc1NS(=O)(=O)c1ccc(OCC(=O)N2CCCC2)cc1	5.6	9.3	0.2	-25.8	-0.2	-1.7%
Cc1ccc(N(CC(=O)NC2CCCC2)C(=O)CCC(=O)Nc2nccs2)cc1C	0.5	-2.5	0.4	-5.3	0.6	-0.9%
CCOC(=O)C1CCN(C(=O)Nc2ccc(C)c(Cl)c2)CC1	-5.2	10.5	-0.6	-26.5	-1.4	0.2%
COCCN(CCOC)S(=O)(=O)c1ccc(C(=O)Nc2ccc(S(=O)(=O)Nc3nccc(C)n3)cc2)cc1	-2.0	-3.7	0.4	-3.4	-1.4	0.1%
CC(=O)c1c(C)n(-c2cccc(Cl)c2)c2ccc(OC(=O)c3ccccc3)cc12	x	22.2	0.1	x	x	1.4%
COc1cc(C(CCN2CCCC(C)C2)c2c(OC)cc(OC)c3c2OC(=O)CC3c2ccc(N(C)C)cc2)cc(OC)c1OC (configuration not stated)	u	-6.9&-5.4	0.5&-0.9	-110.2	0.5	0.5%
CCC1Oc2ccccc2N(CC(=O)N2CC(C)CC(C)C2)C1=O (configuration not stated)	4.5	0.4	0.0	-4.2	-3.6	1.1%
CCCCN(CCCC)CCCNC(=O)CC1Oc2ccc(C)cc2NC1=O (configuration not stated)	1.4	-8.3	-0.1	-0.7	2.3	1.3%[38.3 µM]
CC(C)C(=O)Nc1ccc(N2CCN(C(=O)c3cccs3)CC2)cc1	-8.0	18.2	-0.5	-2.5	-1.5	0.9%
O=S(=O)(Nc1n[nH]c(C(F)(F)F)n1)c1ccccc1	-3.5	-8.3	0.1	-1.1	-2.0	-0.4%
O=[N+]([O-])c1ccc(N/N=C\c2cccn2-c2ccccc2)nc1	u	5.3	10.3	-35.2	-7.5	-3.1%
COc1cc(CCC(=O)Nc2ccc(S(=O)(=O)N3CCOCC3)cc2)cc(OC)c1OC	-13.9	-1.9	-0.7	-2.1	-1.1	1.6%
COc1cccc(NC(=O)Cn2c(=O)n(Cc3ccc(C(=O)NCc4ccc(C)cc4)cc3)c(=O)c3ccccc32)c1	x	-5.0	0.5	x	x	3.3%
CC(=O)Nc1ccc(C(=O)Nc2cc(C)on2)cc1	-3.3	-12.8	-1.2	-3.1	-1.5	-0.2%
CCCC(=O)Nc1cccc(NC(=O)c2ccc(C)c([N+](=O)[O-])c2)c1	-1.5	-26.3	2.6	-13.4	-3.2	3.3%[38.3 µM]
CCN1C(=O)c2ccc(C(=O)Nc3c(C)cc(C)cc3C)cc2C1=O	0.3	5.4	-0.7	-2.4	0.2	6.7%
CC(=O)N/C(=N/c1nc(C)cc(C)n1)Nc1ccc(C)cc1Cl	7.0	-9.5	0.7	-4.7	0.0	0.3%
CCOc1ccccc1CNC(=O)CSc1n[nH]c(-c2ccccc2)n1	x	-17.5	1.0	x	x	1.6%
O=C(NCCCN1CCN(c2ccc(F)cc2)CC1)NC12CC3CC(CC(C3)C1)C2	-0.9	-7.1	0.0	-22.2	3.7	2.4%
Nc1ccc(CC(N)c2csc(Nc3nncc4ccccc34)n2)cc1 (configuration not stated)	-7.2	x	0.3	-7.0	-4.6	-1.1%
COc1cc(Cl)c(C)cc1NC(=O)CN1c2ccccc2S(=O)(=O)c2ccccc21	x	-9.5	-1.0	x	x	1.0%
Cc1cccc(OCC(=O)Nc2ccc3nc(Nc4cccc(Cl)c4)cc(C)c3c2)c1	x	39.9	-0.6	x	x	u
COc1ccc(NC(=O)CSc2nc3ccccc3nc2N2CCOCC2)cc1	-0.3	3.0	1.2	0.3	-3.2	1.7%
O=C(CN(c1cccc(C(F)(F)F)c1)S(=O)(=O)c1ccc(Cl)c([N+](=O)[O-])c1)NCc1ccccc1	-8.7	-8.6	-0.6	-3.7	-7.7	2.9%
CN(CCc1ccccc1)C(=O)c1cccc(NC(=O)Cc2cccc([N+](=O)[O-])c2)c1	-7.8	2.9	-0.5	-7.8	-0.9	-0.1%
COCCN1CCN(C(=O)C2CCC(=O)N(Cc3ccccc3F)C2)CC1 (configuration not stated)	3.3	17.1	0.4	3.6	-1.7	0.8%
CCNC(=S)Nc1cc(C(=O)N2CCCC2)ccc1N1CCCC1	0.9	-2.9	0.6	-7.4	0.9	-1.0%
COC(=O)CNc1c(-c2ccccn2)nc2ccc(Br)cn12	u	1.8	-0.7	3.5	-0.6	-0.3%
COc1ccccc1NC(=O)N1CCCC1C(=O)NCc1ccccc1 (configuration not stated)	-11.0	3.9	-1.0	6.1	-1.1	1.1%
COc1ccc(OC)c2sc(NC(=O)C3COc4ccccc4O3)nc12 (configuration not stated)	-9.4	1.5	-0.1	-8.4	-3.1	2.6%
Cc1ccc(C)c(NC(=O)CN(C)C(=O)c2cccc(Oc3ccccc3)c2)c1	-1.0	-6.5	0.5	-14.4	0.6	2.2%
CCOc1cc(N2CCOCC2)c(OCC)cc1NC(=O)c1cc(C)cc(C)c1	-0.3	10.9	0.7	-4.4	-1.8	5.8%
c1nc(SSc2ncnc3nc[nH]c23)c2[nH]cnc2n1	-11.9	2.5	-0.1	-12.9	-2.4	0.1%
COc1ccc(C(=O)NC(C)c2cnn(-c3ccccn3)c2C)o1 (configuration not stated)	-3.4	21.9	1.9	1.2	-3.9	-3.3%
O=C(Nc1nnc([C@@H]2C[C@H](O)[C@@H](CO)O2)s1)Nc1ccc(F)cc1F	2.3	x	-0.5	-3.5	-4.3	0.7%
Cc1cc(NS(=O)(=O)c2ccc(NC(=O)c3ccc([N+](=O)[O-])s3)cc2)nc(C)n1	-25.1	-16.2	1.1	60.2*	12.5	-0.8%
COc1ccc(N(C(C)=O)C2C=CS(=O)(=O)C2)c(OC)c1 (configuration not stated)	2.7	-2.4	0.6	-6.7	-1.1	4.8%[38.3 µM]
Cc1c(Cl)cccc1NC(=O)CS(=O)(=O)c1ccccc1	-1.2	3.4	-0.4	-9.7	-3.9	-0.5%
CCN(C(=O)COC(=O)CCOc1ccc(C(C)(C)C)cc1)c1c(N)n(Cc2ccccc2)c(=O)[nH]c1=O	7.0	14.3	1.1	-1.8	-1.0	-0.7%
Nc1nc(-c2cccnc2)nn1C(=O)CCc1ccccc1	-0.8	11.8	-0.9	-8.7	2.3	-4.6%
COc1ccc(CC(=O)NCc2nn(-c3ccccc3)nc2C)cc1OC	-9.6	-4.9	-1.3	-15.6	-2.7	8.6%

Later entries
SMILES	Six1-Eya2 inh	TRPML1 blocker	TRPML1 ag	D2 potentiator	D2 agonist	PINK1 expr mod
CCOC(=O)N1CCC2(CC1)C(C#N)=C(N)OC1=C2C(=O)CC(C)(C)C1	8.4	-6.2	0.2	2.6	-3.4	0.6%
Cc1ccc(-c2noc(CCC(=O)NCc3ccccc3CN3CCOCC3)n2)cc1	19.5	-5.0	1.0	0.5	5.1	0.1%
Cc1nc(SCC(=O)N2CCN(c3ccccn3)CC2)c(C#N)c(C)c1C	-2.2	4.6	2.9	-11.1	2.8	3.4%
Nc1nc(SCC(=O)N2CCCCCC2)[nH]c(=O)c1NC(=O)c1ccco1	-0.2	-2.8	-0.2	-3.1	0.4	-0.1%
Cc1ccc(C(=O)Nc2ccc(SC(F)F)cc2)s1	2.8	-6.9	2.2	-23.9	-0.3	3.3%
COC(=O)C1=NN(c2ccccc2)C2C(=O)N(c3ccccc3OC)C(=O)C12 (configuration not stated)	-2.1	-7.5	0.7	2.2	-1.0	0.0%
CC(NC(=O)CN(Cc1ccccc1)S(=O)(=O)c1ccccc1)c1cccnc1 (configuration not stated)	6.8	1.1	0.8	-21.2	1.2	-0.6%
